Screening results from PubChem.
GIRK2 activ: opens human GIRK2 potassium channels | P48051 | HEK293-GIRK2 thallium flux, Thallos fluorescence | calls only for hits at 25 µM | hit rate 0.05% among 63,000;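 active = among the strongest 0.2% of first-round signals and kept after retests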;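 note: first round at about 10 µM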
Target sequence (P48051 whole entry, looked up): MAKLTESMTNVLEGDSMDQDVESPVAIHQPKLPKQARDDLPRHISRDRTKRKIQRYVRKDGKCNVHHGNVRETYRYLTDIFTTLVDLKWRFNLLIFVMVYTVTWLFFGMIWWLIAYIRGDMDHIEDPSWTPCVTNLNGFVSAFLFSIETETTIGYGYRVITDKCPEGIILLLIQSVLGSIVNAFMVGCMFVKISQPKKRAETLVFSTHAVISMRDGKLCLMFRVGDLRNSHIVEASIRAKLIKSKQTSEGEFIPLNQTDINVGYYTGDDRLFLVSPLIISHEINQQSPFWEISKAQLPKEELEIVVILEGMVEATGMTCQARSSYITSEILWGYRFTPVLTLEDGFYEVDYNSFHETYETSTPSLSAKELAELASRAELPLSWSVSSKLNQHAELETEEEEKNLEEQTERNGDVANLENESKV
Calls only; i = inactive. Only part of the results is shown, so the mix of outcomes need not match the whole.

GIRK2 activ	Structure
i	CSc1ccccc1C(=O)Nc1ccc(-n2nnc(C(=O)NC3CC3)n2)cc1
i	COC(=O)c1ccc(S(=O)(=O)NCC2CCS(=O)(=O)C2)cc1 (centres undefined)
i	O=C(COc1ccccc1)NCCNc1ccc(-n2cccc2)nn1
i	CS(=O)(=O)c1ccc2nc(N3CCN(S(C)(=O)=O)CC3)sc2c1
i	O=C1N=c2ccccc2=C1c1cc(-c2c[nH]c3ccc(O)cc23)[nH]c1O
i	COc1ccc(-c2cc3c(SCC(=O)Nc4ccc(C)cc4Br)nccn3n2)cc1
i	N#Cc1nc(-c2ccc(COc3ccccc3)o2)oc1NCCCn1ccnc1
i	Cc1cc(N2CCN(C(=O)C3c4ccccc4Oc4ccccc43)CC2)ncn1
i	O=C(NCC1CCN(C(=O)Nc2ccc(F)cc2)CC1)c1ccc2nsnc2c1
i	COc1ccc(-c2nnc(C3CCCN(C(=O)C4CCCC4)C3)s2)cc1 (centres undefined)
i	CN(CC(=O)NCc1nc2ccccc2[nH]1)c1nc2c(C(F)(F)F)cccc2s1
i	Cc1ccc2nc(C)cc(NC(=O)c3cccc(S(=O)(=O)N4CCOCC4)c3)c2c1
i	Cc1ccc(/C=C2\Oc3c(ccc4c3CN(CCN3CCOCC3)CO4)C2=O)o1
i	O=C(CCC1CCCC1)NC1CCN(C(=O)c2cc(-c3cccs3)[nH]n2)CC1
i	CC(=O)NCC1CCC(c2nc3ccccc3n2C)CC1 (centres undefined)
i	C=CCOC(=O)COc1cc2occ(-c3ccc4c(c3)OCCO4)c(=O)c2cc1CC
i	O=C(NCc1ccsc1)c1cc2ccccc2o1
i	CNC(=O)CCCCCN(C)S(=O)(=O)c1ccc(C)cc1
i	CSc1ccc(NC(=O)c2ccc(S(=O)(=O)N3CCCCC3)cc2)nn1
i	CC(C)(C)N(C(=O)c1cc(=O)c2ccccc2o1)C(=O)N1CCCCC1

(more compounds)
GIRK2 activ	Structure
i	Cc1c(Cl)cccc1N1CCCn2c1nc1c2c(=O)n(CC(N)=O)c(=O)n1C
i	COc1ccc(C(=O)COC(=O)CCc2c[nH]c3ccccc23)cc1
i	Cc1ccccc1N1CCN(c2nccn3c(=O)n(CC(=O)Nc4ccc(F)cc4)nc23)CC1
i	O=C(Cn1ncn2nc(-c3ccccc3)cc2c1=O)NCCc1ccccc1
i	COCC(=O)NCCNc1cc(-n2cccc2)nc(C)n1
i	CC(=O)C(C)n1c(=O)c2c(nc3n(-c4ccccc4F)c(C)cn23)n(C)c1=O (centres undefined)
i	O=C(c1ccc2nc[nH]c2c1)N1CC(c2nc(-c3cccc(C(F)(F)F)c3)no2)C1
i	Cc1cc(NC(=O)c2cc(=O)c3ccccc3o2)n(-c2nc(-c3ccccc3)cs2)n1
i	O=C(NCc1cccs1)N1CCC(CSCc2ccco2)CC1
i	CSc1ccccc1C(=O)N(Cc1cccs1)Cc1cccn1C
i	Cc1cc(OCC(=O)NCc2ccccc2)nc(N2CCCC2)n1
i	Cc1cn2c3c(=O)n(C)c(=O)n(C)c3nc2n1CCCN1CCN(c2cccc(Cl)c2)CC1
i	CCOc1ccc(-c2nnc3n(CCCc4ccccc4)c4c(=O)n(C)c(=O)n(C)c4n23)cc1
i	O=C(Cc1ccccc1Cl)N1CCC(Cn2cnc3ccccc32)CC1
i	O=C(NC1CC(=O)N(C2CC2)C1)c1cc(-c2ccccc2)n[nH]1 (centres undefined)
i	Cc1noc(C)c1CCC(=O)N1CC2(COC(C)(C)OC2)C1
i	Cc1cc(-c2nnc(NC(=O)c3c[nH]c4ccccc34)o2)c(C)o1
i	COc1cccc(COc2coc(C(=O)N3CCC(C)CC3)cc2=O)c1
i	O=C(CSc1nnc2ccc3ccccc3n12)c1ccccc1
i	CCn1c(SCC(=O)Nc2ccc(OC)cc2)nc2c3cc(OC)ccc3n(C)c2c1=O

Continuation.
GIRK2 activ	Structure
i	CCc1nnc(C2CCN(C(=O)c3cc(C)on3)CC2)s1
i	O=C(Cc1ccccc1Cl)NCc1ccc(C(=O)c2cccs2)s1
i	Cc1ccc2c(Nc3ccc(F)cc3)c(C(=O)N3CCCCC3C)cnc2n1 (centres undefined)
i	CCOC(=O)C1CCN(c2c(S(=O)(=O)c3ccc(CC)cc3)cnc3ccccc23)CC1
i	CCOc1ccc(CC(=O)NCC(c2cccs2)N(C)C)cc1 (centres undefined)
i	Cc1ccc(C(=O)NCc2sc(-c3ccccc3Cl)nc2C)c(C)c1
i	O=C1CCSCC(C(=O)NCC2CCCO2)N1 (centres undefined)
i	Cc1cc(C(=O)NCC2CCN(c3cnccn3)CC2)c(C)o1
i	Cc1ccc(-n2c(C)c(C)n3c4c(=O)n(CC(N)=O)c(=O)n(C)c4nc23)cc1
i	COC(=O)c1sccc1S(=O)(=O)Nc1ccc(Cl)cc1
i	Cc1ccc(S(=O)(=O)c2cnc(SCC(=O)Nc3cccc(C)c3C)[nH]c2=O)cc1
i	CCN(CC)CCn1c2c(c(=S)[nH]c1=O)CCCC2
i	O=S(=O)(c1ccc(C(F)(F)F)cc1)N1CC(c2nc(Cc3ccccc3)no2)C1
i	O=C(NCC1CCN(c2ccccn2)CC1)c1ccccn1
i	COc1ccc2c(c1)O/C(=C\c1cc(OC)c(OC)cc1OC)C2=O
i	Cc1c(Cl)cccc1S(=O)(=O)NCc1cc(-c2ccco2)n(C)n1
i	CCCc1ccc(C(=O)N(CCc2cccs2)C2CC2)cc1
i	O=C(Cc1ccc(NS(=O)(=O)/C=C/c2ccccc2)cc1)NCc1cccs1
i	O=C(CC(c1ccccc1)c1ccccc1)NCCC(O)C1CC1 (centres undefined)
i	COc1ccc(CCN2COc3ccc4c(=O)c(-c5ccccc5)coc4c3C2)cc1

Next entries.
GIRK2 activ	Structure
i	O=S(=O)(Cc1ccccc1)N1CCN(c2nc(N3CCCC3)nc(-n3ccnc3)n2)CC1
i	Cc1ccc(N2C(=O)N(c3cccc(C(F)(F)F)c3)C3CS(=O)(=O)CC32)cc1C (centres undefined)
i	NS(=O)(=O)c1ccc(NC(=O)CSc2nnc3scc(-c4ccccc4)n23)cc1
i	CSCC(C)(O)CNC(=O)CSCc1ccccc1 (centres undefined)
i	O=c1c(-c2nc(-c3ccncc3)no2)cccn1Cc1cc(=O)n2ccccc2n1
i	CCCc1noc(-c2ccc(-n3ncc(C(=O)N4CCSCC4)c3C)nc2)n1
i	Cc1cc(CNC(=O)c2ccc(F)cc2Cl)c(C)o1
i	CCNC(=S)N1CCN(C(=S)c2ccc(OC)cc2)CC1
i	CN(C)CC/C=C1/c2ccccc2COc2ccccc21
i	O=C(NCCC1=CCCCC1)C(=O)NCCc1ccc(Cl)cc1
i	O=C(Nc1ccc(-n2cnnn2)cc1)C1COc2ccccc2O1 (centres undefined)
i	Cc1ccc(NC(=O)N2CCN(c3cc(Nc4ccccn4)nc(C)n3)CC2)c(Cl)c1
i	COc1ccc(-n2nnc3c(N4CCN(C(=O)C(C)(C)C)CC4)ncnc32)cc1
i	CCc1cccc(NC(=O)NCCNc2cc(Nc3ccccn3)nc(C)n2)c1
i	O=C(c1ccccc1Br)N1CCN(Cc2cnnn2-c2ccccc2)CC1
i	CCN(CC)S(=O)(=O)c1ccc(C(=O)N2CCN(Cc3nc(C)cs3)CC2)cc1
i	CCOc1cc(/C=C2/SC(=S)N(c3cccc(F)c3)C2=O)ccc1O
i	Cc1cc(C)c(C)c(S(=O)(=O)N2C(=S)NC(=O)C2C(C)C)c1C (centres undefined)
i	CC1=C(C(=O)OC2CCCCCC2)C(c2ccccc2I)NC(=O)N1C (centres undefined)
i	COc1ccc(NC(=O)Nc2ccc(Nc3cc(-n4cccn4)ncn3)cc2)c(C)c1

(more compounds)
GIRK2 activ	Structure
i	CN(C)CCN(C(=O)c1cccs1)c1nc2c(S(C)(=O)=O)cccc2s1
i	OC(COc1cccc2ccccc12)CN1CCCCC1 (centres undefined)
i	COc1ccc(-c2c3c([nH]c(=S)c2C#N)CC(C)(C)CC3=O)cc1
i	CCn1c(N2CCN(CC(N)=O)CC2)nc2c1c(=O)[nH]c(=O)n2C
i	Cc1nn(C)c(C)c1CN1Cc2ccccc2OCC1=O
i	CC(C)NC(=O)CSc1nnc(N2CCN(C(=O)c3ccc(F)cc3Cl)CC2)s1
i	CC(c1ccccc1)n1c(C2CC(=O)N(C(C)(C)C)C2)nc2ccccc21 (centres undefined)
i	CCc1ccccc1NS(=O)(=O)c1cn(C)nc1C
i	COCCN1C(=O)N(c2ccc(F)cc2)C(=O)C1CC(=O)NCc1ccccc1 (centres undefined)
i	O=C(OC1CN(c2nc3c(Cl)cccc3s2)C1)c1ccc(=O)[nH]n1
i	CC12CC(c3ccccc3O1)C(C(=O)N1CCN(C(=O)c3ccco3)CC1)C(=O)N2 (centres undefined)
i	O=C(CSc1nnc(N2CCN(C(=O)c3cccc([N+](=O)[O-])c3)CC2)s1)NCc1ccco1
i	NC(=O)CSc1nnc(N2CCN(C(=O)c3ccc(Br)o3)CC2)s1
i	CC(C)C(=O)N1CCCc2ccc(NC(=O)C(=O)NCC(O)c3ccoc3)cc21 (centres undefined)
i	O=C(NCc1ccco1)c1sccc1S(=O)(=O)N1CCN(c2ccc(Cl)cc2)CC1
i	COc1ccccc1OCC(=O)NCCCS(=O)(=O)N1CCN(c2ncccn2)CC1
i	O=C(Cn1cnc2c([nH]c3ccccc32)c1=O)NCC1CCN(Cc2ccccc2F)CC1
i	CCS(=O)(=O)N1CCCc2ccc(NS(=O)(=O)c3cc(C)ccc3OC)cc21
i	COc1cccc2sc(N(C)CC(=O)NCCSc3nncn3C)nc12
i	CCN1C(=S)NC2CC1(C)Oc1ccc(Br)cc12 (centres undefined)

Next results.
GIRK2 activ	Structure
i	CCOC(=O)Nc1nc(CC(=O)N2CCn3c2nc2ccccc23)cs1
i	O=C(c1ccc2ncsc2c1)N1CCC(Oc2cnccn2)CC1
i	Cc1cn2c3c(=O)n(C)c(=O)n(C)c3nc2n1CCCN1CCC(C(N)=O)CC1
i	Oc1ccc(-c2nc3c4cnn(-c5ccccc5)c4ncn3n2)cc1
i	Cn1cnc2nc(NCCO)nc(NCc3ccccc3)c21
i	COc1ccc(Cl)cc1NC(=O)CSc1ncnc2nc(N3CCCC(C)C3)sc12 (centres undefined)
i	C=CCn1c(SCc2nc(-c3ccccc3OC)no2)nc2cc3c(cc2c1=O)OCO3
i	CCc1ccc(NC(=O)C(=O)NCC(C)(O)COC)cc1 (centres undefined)
i	CC(C)COc1ccc(S(=O)(=O)N2CCC3(CC2)OCCS3)cc1
i	COc1cc(F)ccc1S(=O)(=O)NCc1cccnc1
i	CC(=O)Nc1ccc2c(c1)CCN2C(=O)C1CCCC1
i	COCCN1CCC(CNC(=O)c2cccc(C(F)(F)F)c2)CC1
i	CCOc1ccc2nc(N(CCCn3ccnc3)C(=O)c3cccc(F)c3)sc2c1
i	COc1ccc(CCNc2oc(-c3ccc(S(=O)(=O)N4CCCC4)cc3)nc2C#N)cc1OC
i	COc1ccc(NC(=O)Nc2ccc3c(c2)CCCN3C(=O)c2ccccc2)cc1OC
i	COc1ccc(C)cc1NC(=O)CN1CCCN(Cc2ccc(C)cc2)S1(=O)=O
i	COc1cc(-c2ccccc2)nc2ccc(NS(=O)(=O)c3ccc(NC(C)=O)cc3)cc12
i	COc1ccc(-c2coc3c4c(ccc3c2=O)OCN(C2CCCCC2)C4)cc1
i	Cc1ccc(N2CCCn3c2nc2c3c(=O)n(CC(=O)c3ccccc3)c(=O)n2C)cc1
i	O=C(COc1ccc2ccccc2c1)NCCCN1CCN(c2ccccc2)CC1

Exported with each value named: part of the list above
molecule: COc1ccc(CCNc2oc(-c3ccc(S(=O)(=O)N4CCCC4)cc3)nc2C#N)cc1OC
  GIRK2 activ: i

molecule: COc1ccc(NC(=O)Nc2ccc3c(c2)CCCN3C(=O)c2ccccc2)cc1OC
  GIRK2 activ: i

Continued:
GIRK2 activ	Structure
i	Cc1cccc(-c2csc3c(=O)[nH]c(N4CCC(C(=O)NC(C)c5ccccc5)CC4)nc23)c1 (centres undefined)
i	N#Cc1nc(-c2ccc(S(=O)(=O)N3CCCC3)cc2)oc1N1CCN(Cc2ccccc2)CC1
i	Cc1cc(C(=O)NCc2cc(-c3ccccn3)n(C)n2)c(C)o1
i	CCCOc1nc2ccccc2nc1N1CCOCC1
i	O=c1c2cc(Cl)ccc2nc2sc(Nc3ccc(F)c(F)c3)nn12
i	O=C(Cn1c(-c2ccc(F)cc2)nc2c(c1=O)CCN(Cc1ccccc1)C2)Nc1ccc(F)cc1
i	Cc1ccc(NC(=O)C(=O)NCC(O)c2ccc3c(c2)CCO3)cc1N1CCCC1=O (centres undefined)
i	COc1ccc(F)cc1S(=O)(=O)Nc1cccc(-c2csc3nc(C)cc(=O)n23)c1
i	Cc1cc(NC(=O)CSc2nnc(-c3c(C)nc4sccn34)n2C)no1
i	O=C(NCC1(O)CCOc2ccccc21)c1cc(=O)c2ccccc2o1 (centres undefined)

Compounds listed so far that have a furan ring, fused or not (14):
GIRK2 activ	Structure
i	N#Cc1nc(-c2ccc(COc3ccccc3)o2)oc1NCCCn1ccnc1
i	Cc1ccc(/C=C2\Oc3c(ccc4c3CN(CCN3CCOCC3)CO4)C2=O)o1
i	O=C(NCc1ccsc1)c1cc2ccccc2o1
i	O=C(NCc1cccs1)N1CCC(CSCc2ccco2)CC1
i	Cc1cc(-c2nnc(NC(=O)c3c[nH]c4ccccc34)o2)c(C)o1
i	Cc1cc(C(=O)NCC2CCN(c3cnccn3)CC2)c(C)o1
i	Cc1c(Cl)cccc1S(=O)(=O)NCc1cc(-c2ccco2)n(C)n1
i	Cc1cc(CNC(=O)c2ccc(F)cc2Cl)c(C)o1
i	CC12CC(c3ccccc3O1)C(C(=O)N1CCN(C(=O)c3ccco3)CC1)C(=O)N2 (centres undefined)
i	O=C(CSc1nnc(N2CCN(C(=O)c3cccc([N+](=O)[O-])c3)CC2)s1)NCc1ccco1
i	NC(=O)CSc1nnc(N2CCN(C(=O)c3ccc(Br)o3)CC2)s1
i	CC(C)C(=O)N1CCCc2ccc(NC(=O)C(=O)NCC(O)c3ccoc3)cc21 (centres undefined)
i	O=C(NCc1ccco1)c1sccc1S(=O)(=O)N1CCN(c2ccc(Cl)cc2)CC1
i	Cc1cc(C(=O)NCc2cc(-c3ccccn3)n(C)n2)c(C)o1
